Source: PubChem BioAssay
Six1-Eya2 inh: Six1/Eya2 interaction inhibition. Q15475+O00167. AlphaScreen GST-Six1/His-Eya2 binding, biochemical; active compounds read low; control for the full effect not named in the record. activity change, % (concentration not given with the values). 0.56% of 360,000 active. AID 651725; in the data active = activity change below about -65%; inconclusive = about -30% to -65%; inactive = above about -30%; note: % is set by controls: 0 for no effect and ±100 for the full control effect
Target sequence (O00167 whole entry, looked up): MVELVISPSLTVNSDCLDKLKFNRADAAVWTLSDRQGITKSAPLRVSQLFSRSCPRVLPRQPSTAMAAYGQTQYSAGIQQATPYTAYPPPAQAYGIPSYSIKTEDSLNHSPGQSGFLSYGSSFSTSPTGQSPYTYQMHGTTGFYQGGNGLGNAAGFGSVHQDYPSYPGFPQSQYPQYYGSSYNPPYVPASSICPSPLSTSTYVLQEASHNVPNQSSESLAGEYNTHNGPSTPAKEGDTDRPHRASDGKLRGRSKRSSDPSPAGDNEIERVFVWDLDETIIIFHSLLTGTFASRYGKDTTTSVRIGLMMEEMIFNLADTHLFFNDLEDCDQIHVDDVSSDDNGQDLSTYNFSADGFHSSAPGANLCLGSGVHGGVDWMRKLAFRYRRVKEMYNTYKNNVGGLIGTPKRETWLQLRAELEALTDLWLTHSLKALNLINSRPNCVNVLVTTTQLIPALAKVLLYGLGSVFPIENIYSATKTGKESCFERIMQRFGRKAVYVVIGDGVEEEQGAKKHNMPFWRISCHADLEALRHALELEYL
Target sequence (Q15475 whole entry, looked up): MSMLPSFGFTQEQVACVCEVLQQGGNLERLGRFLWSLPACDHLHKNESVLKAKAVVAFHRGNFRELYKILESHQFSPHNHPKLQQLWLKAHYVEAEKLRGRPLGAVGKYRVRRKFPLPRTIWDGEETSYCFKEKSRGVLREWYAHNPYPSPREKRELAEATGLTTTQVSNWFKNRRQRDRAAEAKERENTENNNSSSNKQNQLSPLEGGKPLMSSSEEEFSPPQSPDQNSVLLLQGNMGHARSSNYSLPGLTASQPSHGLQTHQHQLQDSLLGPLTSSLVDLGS
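Compounds are tested against tagged Six1 and Eya2 proteins bridged by glutathione donor and nickel acceptor beads; after a one-hour incubation at 37 °C without light, AlphaScreen emission is recorded.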
CtBP-E1A blk: inhibitors of CtBP/E1A interaction | 0.49% of 340,000 active | AID 651724 | activity change, % (concentration not given with the values) | AlphaScreen GST-E1A/His-CtBP binding, 1536-well; active compounds read low; control for the full effect not named in the record; in the data active means activity change below about -65%; inconclusive means about -30% to -65%; inactive means above about -30%; note: % is set by controls: 0 for no effect and ±100 for the full control effect
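Homogeneous bead-based format: GST-tagged E1A captured on glutathione donor beads, His-tagged CtBP on nickel acceptor beads; compounds precede bead addition by 2 h at 37 °C.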
TRPML1 blocker: human mucolipin-1 channel inhibition | activity change, negative = inhibition, % (concentration not given with the values) | Q9GZU1 | 0.02% of 390,000 active | TRPML1-inducible cells, Ca2+ dye fluorescence, FDSS; active compounds read low; inhibition of EC80 agonist-evoked calcium signal; in the data active means activity change below about -50%; inconclusive means about -30% to -50%; inactive means above about -30%;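 note: stimulus is agonist 54-4 at its EC80 concentration; % is set by controls: 0 for no effect and ±100 for the full control effect; the text of the record puts the active cut at -80%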
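TRPML1-DL cells, Tet-induced overnight (~16 h, 37 °C) at 1,500 cells/well, were loaded with Ca8 no-wash dye plus quencher for 45-90 min at room temperature. Compounds were pinned during FDSS kinetic reading; agonist 54-4 at EC80 (4 uM final) then added.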
PINK1 expr mod: changes PINK1 expression | PINK1 immunofluorescence, high-content cytometry, 24 h | Potency, µM (doses to about 76.6 µM), for inactives: top-dose activation (PINK1 increase), usual class: activators | 0.2% of 410,000 active; active = well fitted activation curve with a large enough effect; inconclusive = small, poorly fitted or top-dose-only effect; inactive = flat fitted curve, though single readings scatter; cell line not stated here;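 note: potency is the fitted concentration of half-maximal effect; % of control where 0% means no effect; nearly all actives have a fitted effect of over 65% in size; a mitochondrial uncoupler was the plate control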
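A stable cell line was treated with compounds at 5 concentrations for 24 hours, with CCCP as control. PINK1 levels and mitochondrial localization were measured by immunofluorescence with mitochondrial, cell and nuclear markers after fixation, read by laser-scanning cytometry.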
D2 agonist: activates the human D2 dopamine receptor; DiscoveRx PathHunter D2 beta-arrestin, luminescence, 90 min; 100% = 57 uM dopamine signal; 0.084% of 360,000 active; activation, % (concentration not given with the values); AID 624465; in the data active = activation above about 40%; inconclusive = about 15% to 40%; inactive = below about 15%; note: compound concentration not given in the record; the text of the record calls up to 30% inactive
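DiscoveRx PathHunter D2 beta-arrestin cells (2,100/well) attached overnight, then compound-stimulated 90 min at 37 C in HBSS/10 mM HEPES/0.1% Tween-20 buffer; beta-galactosidase complementation read by luminescence after 1 h at ambient temperature. Dopamine 57 uM final (EC100) as control.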
TRPML1 ag: human mucolipin-1 channel agonism | TRPML1-expressing cells, Ca2+ dye fluorescence, FDSS; host cell line not named in the record; reference of the full effect not given here | activation, % (test concentration not listed) | 0.12% of 410,000 active | AID 624414; in the data active = activation above about 50%; inconclusive = about 30% to 50%; inactive = below about 30%; note: 0% is about no effect; the text of the record puts the active cut at 80%
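Tetracycline-induced TRPML1-DL cells are seeded and incubated overnight before loading with a no-wash Ca2+ dye and quencher. Agonist activity is taken from the 110 s fluorescence read following compound pin-transfer on an FDSS, before EC80 54-4 challenge.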
* marks the source's active call; other numbers are inactive results; u = inconclusive; x = no result given; & = joins results of further samples; [ ] = remark or other dose.

SMILES	Six1-Eya2 inh	CtBP-E1A blk	TRPML1 blocker	PINK1 expr mod	D2 agonist	TRPML1 ag
O=C(CSc1ncnc2ccccc12)NCC(=O)c1ccccc1	9.1	4.8	-8.1	2.6%	-4.8	-0.8
O=C(NCCN1CCOCC1)C(=O)NCC1CCCO1 (configuration not stated)	5.3	1.1	-5.8	5.2%	2.0	0.1
c1ccc2nc3c(nc2c1)c1ccccc1n3CCN1CCOCC1	-3.5	5.1	-6.8	5.0%[38.3 µM]	-2.5	-0.3
Cn1ccnc1C(O)(c1nnc(-c2ccccc2)o1)C(F)(F)F (configuration not stated)	-6.5	2.5	-13.5	0.7%	-5.6	0.0
COc1cccc(CNC(=O)C2CCN(c3nn4c(=O)cc(C)nc4s3)CC2)c1	-8.7	-18.0	9.4&26.4	-0.4%&1.4%	-2.9	-0.7&-0.9
COC(C(=O)N/N=C/c1ccc(OCC(=O)N2CCOCC2)cc1)c1ccccc1 (configuration not stated)	-6.8	6.3	10.4	1.6%	7.2	-0.2
CC(c1ccccc1)N1C(=O)c2ccccc2C1O (configuration not stated)	5.0	1.8	-15.0	-1.5%	-4.7	0.2
CCC(C)NCCOCCOc1ccc(Cl)c(C)c1C (configuration not stated)	5.7	1.5	31.9	-3.6%	3.5	0.0
COc1ccc(S(=O)(=O)Nc2ccc(S(=O)(=O)N3CCOCC3)cc2)cc1	-1.7	-1.2	-5.8	-1.3%	0.5	2.9
O=S(=O)(c1ccc(Cl)cc1)N1CCN=C1SCc1ccc(Cl)c(Cl)c1	4.2	5.8	2.1	3.7%	-0.6	0.0
Cc1ccc(S(=O)(=O)N2CCN(C(=O)COC(=O)COc3ccc(Br)cc3)CC2)c(C)c1	0.0	-9.5	-0.3	1.4%	-3.9	0.8
CN(C)S(=O)(=O)c1ccc(C(=O)OCC2COC(C)(C)O2)cc1 (configuration not stated)	-3.0	2.8	-4.1	-2.0%	0.3	-0.1
O=C(Nc1nc2c(s1)CCCC2)C1CCCN1C(=O)c1cccs1 (configuration not stated)	-3.3	-1.8	-6.3	-1.1%	-0.2	0.5
C/C(=N\NC(N)=O)c1ccc(Cl)s1	4.4	2.8	-12.6	-0.4%	-4.2	0.4
CC(C)NC(=O)c1nn2c(C(F)(F)F)cc(-c3ccco3)nc2c1Cl	21.9	4.9	-6.9	1.7%	-0.1	-0.6
Cc1ccc(S(=O)(=O)NCCC(=O)NNc2c(F)c(F)cc(F)c2F)cc1	3.5	x	33.0	-1.1%	0.3	0.3
O=c1cc(-c2ccccc2)nc2nc[nH]n12	7.9	1.0	29.9	0.0%	-1.2	3.4
COCCCNC(=O)CCn1c(=O)c2ccccc2n(CC(=O)Nc2ccc(C)cc2C)c1=O	-0.1	-1.6	-9.9	1.8%	-1.5	-0.4
CCOP(=O)(OCC)c1ccccc1OCP(C)(=O)COc1ccccc1P(=O)(OCC)OCC	8.0	0.8	-10.2	4.3%	-3.5	0.9
CCC(C)Oc1nc2ccccc2nc1NS(=O)(=O)c1ccccc1 (configuration not stated)	-1.8	-0.1	-8.6	-2.7%	-5.5	-0.2
Cc1ccc(NC(=O)N2CCCC2C(=O)NCc2ccc3c(c2)OCO3)cc1 (configuration not stated)	-1.7	8.6	-24.7	-0.1%	-3.7	0.6
COc1ccccc1Nc1nc(C)cc(C)c1C(N)=O	-1.0	3.5	10.9	-0.1%	1.2	-1.1
Cc1ccc2cc(C#N)c(N3CCCN(C(=O)C4CCCO4)CC3)nc2c1C (configuration not stated)	15.6	5.5	-10.7	0.8%	2.4	0.3
O=C(c1c(F)cccc1F)N1CCN(c2ncc(Br)cn2)CC1	12.6	8.2	18.4	-1.2%	-0.6	0.7
COc1ccc(C)cc1S(=O)(=O)n1c([N+](=O)[O-])cnc1C	2.4	7.2	-9.2	1.2%	-0.1	-0.4
O=C(COC(=O)CSc1ccc2ccccc2c1)NC1CC1	7.2	14.6	-3.8	-1.2%	0.5	0.3
CCNC(=O)c1ccc(NC(=O)CC2SC(N3CCCCC3)=NC2=O)cc1 (configuration not stated)	1.4	1.9	2.4	0.5%	-2.4	-0.3
CCN(CCCNC(=O)C1CCN(S(=O)(=O)c2c(C)[nH]c(=O)[nH]c2=O)CC1)c1cccc(C)c1	-4.9	-3.8	-4.8	5.1%	-1.1	-0.3
CCOC(=O)C1=C(N)OC2=C(C(=O)CCC2)C1c1sccc1C (configuration not stated)	-9.6	x	23.1	1.8%	-0.7	2.5
COc1cc2cnc(-c3ccccc3)c(-c3cccc(C(F)(F)F)c3)c2cc1OC	-7.7	-1.8	-6.6	3.6%	u	-0.3
Cc1nn(-c2ccc(F)cc2)c(Cl)c1C(=O)N(C)CC(=O)Nc1cccc(F)c1	9.8	-4.8	-22.7	-1.1%	-3.8	1.2
Cc1cc2c(c(=O)n1C)C(Cc1ccccc1)C(C#N)=C(N)O2 (configuration not stated)	-0.5	0.4	15.2	-0.3%	0.0	3.8
CC(=O)N1CCc2cc(S(=O)(=O)Nc3ccc(C)cc3C)ccc21	-4.6	-3.9	x	11.4%	-1.5	x
CCN(CC)CCN(Cc1cc2cc(C)ccc2[nH]c1=O)C(=S)Nc1ccccc1	-0.8	8.6	-1.0	0.0%	-1.9	-0.3
COc1ccccc1N1CCN(C(=O)c2cc(-c3ccccc3)on2)CC1	-4.1	-2.4	-0.9	0.9%	2.5	1.4
COC(=O)CC/C(C)=N\Nc1ccc([N+](=O)[O-])cc1[N+](=O)[O-]	-7.8	-4.5	3.5	-1.1%[38.3 µM]	2.0	-0.3
COc1ccc(NC(=S)N2CCC(Cc3ccccc3)CC2)cc1	-9.2	-3.2	1.5	-1.0%	-3.6	0.1
COC(=O)c1ccc(Sc2ccccc2NS(=O)(=O)c2ccc(NC(C)=O)cc2)nc1	3.3	5.9	19.3	-0.2%	2.0	-0.2
O=C(CSc1cccc(C(F)(F)F)c1)N1CCN(S(=O)(=O)c2ccccc2)CC1	0.6	13.9	9.5	-3.2%[38.3 µM]	-0.3	-0.5
COc1ccccc1CN(C(=O)Cc1cccs1)C(C(=O)NC1CCCC1)c1ccncc1 (configuration not stated)	-0.2	0.6	-0.3	-4.1%[38.3 µM]	0.8	0.1
CC(CNC(=O)Cn1ccc2cc(S(=O)(=O)N3CCCCCC3)ccc21)c1ccccc1 (configuration not stated)	x	x	5.0	1.1%	x	0.1
COc1ccc(C(=O)COC(=O)/C=C/c2ccc(S(=O)(=O)Nc3cccc(S(N)(=O)=O)c3)cc2)cc1	-0.9	-1.7	-1.6	0.2%	-1.2	0.8
COc1ccc(CNC(=O)CC(C)S(=O)(=O)c2ccc3c(c2)NC(=O)CO3)cc1 (configuration not stated)	3.3	2.9	-28.9	-1.0%	0.7	0.3
O=C(O)/C=C/C(=O)Nc1ccc(O)cc1	3.2	x	-2.3	2.7%	8.8	-0.1
Cc1ccc(-n2nc(C)c3c(C)c(CCC(=O)NCc4ccc(Cl)cc4)c(C)nc32)cc1	x	x	-5.9	-0.4%	x	-0.4
C[C@@H]1CN([C@@H](C)CO)S(=O)(=O)c2ccc(Br)cc2O[C@H]1CN(C)C(=O)c1ccc2c(c1)OCO2	4.2	6.7	45.3	1.7%	-5.3	-0.6
COc1ccc(OC(=O)c2cn(C)nc2C(F)(F)F)cc1	-2.3	2.4	27.5	1.2%	-3.3	-1.0
CCc1ccc(NC(=O)CSc2nc3cc(C(=O)OC)ccc3c(=O)n2Cc2ccco2)cc1	1.4	4.9	5.3	-1.6%	-3.5	-1.0
Cc1c(C(=O)OC2CCCCC2)[nH]c2c1C(=O)CC(c1ccccc1Cl)C2 (configuration not stated)	x	x	-8.3	6.6%	x	0.4
CCOC(=O)C1CCN(C(=O)C2CCCN(S(=O)(=O)c3ccc(OCC)c(Cl)c3)C2)CC1 (configuration not stated)	5.9	5.8	-4.9	0.2%	-2.4	0.5
Cn1c(CNC(=O)CNS(=O)(=O)c2ccccc2)cc(=O)n(C)c1=O	14.7	0.0	-10.2	-0.5%	5.6	-1.0
CCN1CCN(c2oc(-c3ccc(COc4ccccc4C)o3)nc2C#N)CC1	x	x	34.1	-0.8%	x	3.1
Cc1cc(C)cc(NC(=O)c2ccc(CSc3nnnn3C)cc2)c1	-6.3	-13.2	6.9	0.1%	2.6	1.6
O=C(Cn1c(=O)n(Cc2ccccc2)c(=O)c2oc3ccccc3c21)Nc1ccc(Cl)cc1	x	x	34.7	0.0%	x	0.7
Cc1ccc(C(=O)CCC2CCCCC2=O)cc1 (configuration not stated)	4.6	8.6	6.3	-0.4%	-2.4	-1.6
O=C(CSc1cccc(C(F)(F)F)c1)Nc1cc(S(=O)(=O)N2CCCC2)ccc1Cl	0.0	0.8	-12.4	19.1%	-1.8	2.1
COC(=O)CCCC(=O)NCC1(N(C)Cc2ccccc2)Cc2ccccc2C1	2.2	8.2	2.8	1.0%	3.7	-0.1
O=C(NC1CCCCC1)N1CCCCCCC1	13.0	-2.2	-0.3	-2.4%	-2.8	-0.6
CNC(=O)CCCN1C(=O)c2cccnc2Sc2ccccc21	x	x	-0.8	-1.0%	x	1.1
COc1ccccc1OCCNC(=O)c1ccc(Br)cc1	-1.6	-6.9	-8.3	0.0%	0.6	1.9

Carrying on.
SMILES	Six1-Eya2 inh	CtBP-E1A blk	TRPML1 blocker	PINK1 expr mod	D2 agonist	TRPML1 ag
Cc1cc2c(cc(C(=O)N3CCC(C(=O)NC4CCCC4)CC3)n2Cc2c(F)cccc2Cl)o1	3.3	2.2	-4.3	0.2%	-3.0	-0.7
CCn1c(SCC(=O)Nc2ccc(C(=O)OC)cc2)nc2cccnc21	-3.8	-4.6	-10.7	0.8%	-2.1	-0.3
CN(C)c1ccc(/C=N/NC(=O)CNC(=O)c2ccncc2)cc1	5.9	4.7	-2.2	2.8%	1.1	-0.4
CCC(Oc1cccc(C)c1)C(=O)Nc1ccccc1C(=O)N1CCOCC1 (configuration not stated)	0.9	4.2	1.8	1.8%	-0.6	1.5
C=CCCC1CN(Cc2ccco2)S(=O)(=O)c2c(F)cccc2O1 (configuration not stated)	-4.7	0.2	-3.5	0.4%	-0.1	0.1
Brc1ccc(CNCc2cccs2)cc1	6.1	24.3	68.5	1.9%	0.8	1.4
CCN1CCN(C(=O)CN(CC)S(=O)(=O)c2ccc(F)cc2)CC1	4.3	5.3	13.2	-2.3%	-6.1	0.4
COc1ccccc1CNC(=O)c1cc2c(C)nn(Cc3ccc(F)cc3)c2s1	6.9	-7.1	5.6	0.3%	0.7	1.2
Cc1cccc(C)c1OCC(=O)N(Cc1ccco1)C1CCS(=O)(=O)C1 (configuration not stated)	-8.8	-6.8	-5.0	-0.3%	-4.7	0.3
CCCCN1CCc2c([nH]c3c(C)cccc23)C1=O	-1.4	2.6	-16.2	1.2%	-0.7	1.4
O=C(COC(=O)c1ccccc1Br)Nc1ccc2[nH]c(=O)[nH]c2c1	-8.2	1.3	14.0	-0.8%	-0.3	0.3
